# PINK1 expr mod: A Quantitative High throughput Screen to Identify Chemical Modulators of PINK1 Expression | Potency, µM (titrated, usually from 76.6 µM), for the others: at the top dose activation (PINK1 increase), usual class: activators | AID 624263, 2012 | 0.2% of 410,000 active | PINK1 immunofluorescence, high-content cytometry, 24 h; active = well fitted activation curve with a large enough effect; inconclusive = small, poorly fitted or top-dose-only effect; inactive = flat fitted curve, though single readings scatter; cell line not stated here;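 note: potency is the fitted concentration of half-maximal effect; % of control where 0% means no effect; nearly all actives have a fitted effect of over 65% in size; a mitochondrial uncoupler was the plate control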
#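 Measures PINK1 amount and localization on or inside mitochondria by immunofluorescence. Stable cells get compounds at 5 concentrations for 24 hours before fixation and staining; CCCP controls included.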
# Sfp PPTase inh: qHTS Assay for Inhibitors of Bacillus subtilis Sfp phosphopantetheinyl transferase (PPTase); 4'-phosphopantetheinyl transferase ffp (Bacillus subtilis), Q9F4F7; Biochemical Sfp PPTase activity, qHTS; Potency, µM, for the others: max response, negative = inhibition, actives largely listed as inhibitors; 3.5% of 310,000 active; AID 1490, 2009; active = well fitted inhibition curve with a large enough effect; inconclusive = small, poorly fitted or top-dose-only effect, or another doubt; inactive = no such curve, though single readings can be large or run the other way;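 note: the enzyme is Sfp with the accession as filed and its product quenches rhodamine fluorescence; potency is the fitted concentration of half-maximal effect; 0% = enzyme reaction without inhibitor and -100% = no enzyme wells; top concentration of the series not given in the record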
#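 Fluorescence-quenching assay: 15 nM Sfp-PPTase preincubated 15 min at room temperature with compound, then 5 uM rhodamine-CoA and 12.5 uM BHQ-2-labelled YbbR peptide added. Fluorescence (ex 525/em 598 nm) read at start and after 30 min; difference gives rate.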
# Menin MLL FP FL: qHTS Assay for Inhibitors Targeting the Menin-MLL Interaction in MLL Related Leukemias: Competition With Fluorescein Labeled MLL-derived Peptide; FP activity change, % at 61.4 µM; Fluorescence polarization, fluorescein-MLL peptide displacement from menin; 290,000 tested, under 10 active; inconclusive = falling polarisation curve, or a change in total fluorescence; inactive = total fluorescence flat and polarisation flat or rising; no compound was filed as active; the % refers to the polarisation; negative = inhibition;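 note: % of control where 0% means no effect; inhibitors lower the polarisation; unlabelled MLL peptide was the positive control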
# ClpP mod: qHTS Assay for Activators of ClpP; AID 651965, 2013; Potency, µM (series often up to 57.5 µM), for the others: at the top dose activity change, negative = active; 1.9% of 340,000 active; ATP-dependent Clp protease proteolytic subunit (Bacillus subtilis (strain 168)), P80244; purified B. subtilis ClpP, FRET peptide cleavage, 20 min; active = well fitted falling curve with a large enough effect; inconclusive = small, poorly fitted or top-dose-only effect; inactive = no such curve, though single readings can be large or run the other way; note: potency is the fitted concentration of half-maximal effect; the source files actives as falling curves though it sought activators and does not explain the sign; nearly all actives have a fitted effect of over 65% in size; many hits overshoot -100%
# Target sequence (P80244 whole entry, looked up): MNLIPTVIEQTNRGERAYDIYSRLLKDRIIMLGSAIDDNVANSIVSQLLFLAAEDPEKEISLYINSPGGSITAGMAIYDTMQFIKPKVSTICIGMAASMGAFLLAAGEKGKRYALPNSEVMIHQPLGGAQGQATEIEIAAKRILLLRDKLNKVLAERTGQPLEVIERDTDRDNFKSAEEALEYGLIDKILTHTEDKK
#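 Buffer: 100 mM Tris/HCl pH8, 100 mM KCl, 0.05% low protease BSA, 2.5% glycerol, 0.01% Tween-20. ClpP 10 microg/mL final; 20 min RT; delta FRET normalized to ADEP and DMSO controls.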
# TRPV1 PAM: HTS Assay for Compounds that Act as Potentiators of the Vanilloid Receptor 1; 0.02% of 320,000 active; Transient receptor potential cation channel subfamily V member 1 (Homo sapiens), Q8NER1; TRPV1-expressing cells, Fluo-8 calcium influx, capsaicin EC20 potentiation; host cell line not named in the record; control for the full effect not named in the record; potentiation, % at 8.33 µM; active means potentiation above 80%; inconclusive means 30% to 80%; inactive means below 30%; note: 0% is about no effect
# Target sequence (Q8NER1 whole entry, looked up): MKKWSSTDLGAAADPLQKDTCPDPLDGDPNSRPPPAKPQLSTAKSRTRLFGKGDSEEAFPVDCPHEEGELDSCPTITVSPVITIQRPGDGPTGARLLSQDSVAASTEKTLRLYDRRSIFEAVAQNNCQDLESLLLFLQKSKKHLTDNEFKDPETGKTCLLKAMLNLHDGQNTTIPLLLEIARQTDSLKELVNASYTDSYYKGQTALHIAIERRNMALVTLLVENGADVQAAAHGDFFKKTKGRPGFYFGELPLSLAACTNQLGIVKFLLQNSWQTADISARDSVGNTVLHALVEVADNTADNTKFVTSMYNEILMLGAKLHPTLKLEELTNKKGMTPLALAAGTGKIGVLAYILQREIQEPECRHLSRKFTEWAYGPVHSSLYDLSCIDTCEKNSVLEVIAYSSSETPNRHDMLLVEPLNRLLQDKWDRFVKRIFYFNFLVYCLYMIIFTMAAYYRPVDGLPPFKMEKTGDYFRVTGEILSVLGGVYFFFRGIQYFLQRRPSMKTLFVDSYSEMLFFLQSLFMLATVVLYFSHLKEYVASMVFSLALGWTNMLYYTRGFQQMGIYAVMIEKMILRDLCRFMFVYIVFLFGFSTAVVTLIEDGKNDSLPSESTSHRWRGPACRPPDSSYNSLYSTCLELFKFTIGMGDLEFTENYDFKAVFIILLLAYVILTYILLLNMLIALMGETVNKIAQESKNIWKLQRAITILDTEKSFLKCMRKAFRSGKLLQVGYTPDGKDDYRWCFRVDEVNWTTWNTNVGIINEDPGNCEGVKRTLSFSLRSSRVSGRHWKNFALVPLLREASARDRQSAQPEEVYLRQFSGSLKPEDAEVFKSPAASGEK
#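 TRPV1-expressing cells were cultured overnight at 35.5C and loaded with Fluo-8 calcium dye for 40 to 90 min at room temperature. After a 10 s baseline, compound was added and calcium influx was read kinetically for 3 min (ex 480/em 520 nm).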
# TRPML1 inh: qHTS for Inhibitors of the Human Mucolipin Transient Receptor Potential 1 (TRPML1); Mucolipin-1 (Homo sapiens), Q9GZU1; TRPML1-inducible cells, Ca2+ dye fluorescence, FDSS; hits give low values; inhibition of EC80 agonist-evoked calcium signal; activity change, negative = inhibition, % (no concentration beside the values); 0.02% of 390,000 active; AID 624415, 2012; in the data active means activity change below about -50%; inconclusive means about -30% to -50%; inactive means above about -30%;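 note: stimulus is agonist 54-4 at its EC80 concentration; % is set by controls: 0 for no effect and ±100 for the full control effect; compound concentration not given in the record; the text of the record puts the active cut at -80%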
#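 Calcium fluorescence in TRPML1-DL cells induced overnight with Tet: a 110 s read after compound pin addition, then a 110 s antagonist read after challenge with 54-4 at 4 uM final (EC80).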
# TRPML1 ag: qHTS for Agonists of the Human Mucolipin Transient Receptor Potential 1 (TRPML1); TRPML1-expressing cells, Ca2+ dye fluorescence, FDSS; host cell line not named in the record; reference of the full effect not given here; activation, % (concentration not given with the values); 0.12% of 410,000 active; Mucolipin-1 (Homo sapiens), Q9GZU1; in the data active = activation above about 50%; inconclusive = about 30% to 50%; inactive = below about 30%; note: 0% is about no effect; the text of the record puts the active cut at 80%
#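 TRPML1-DL cells, Tet-induced overnight (~16 h, 37 degrees C), loaded 45-90 min at room temperature with Ca8 no-wash calcium dye plus quencher. FDSS fluorescence: 10 s baseline, compound pin-transfer, 110 s agonist read, then EC80 54-4 (4uM final) and 110 s antagonist read.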
# Active calls of the source: *; ? = inconclusive; / = no result given; & = joins results of further samples; [ ] = remark or other dose.
SMILES,PINK1 expr mod,Sfp PPTase inh,Menin MLL FP FL,ClpP mod,TRPV1 PAM,TRPML1 inh,TRPML1 ag
COc1ccc(CN2CCN(c3ncccn3)CC2)c(C)c1C,2.7%,-21%,-6.0,-4.0%,-40,/,/
CC1(C2CC2)NC(=O)N(CC(=O)NCc2ccc(Cl)cc2Cl)C1=O (configuration not stated),-0.7%,/,/,-4.4%,0,-9,-0.2
CCCCCN=Cc1c(C)[nH]n(-c2nc3ccccc3s2)c1=O,5.9%[38.3 µM],-1%,4.6,0.0%,2,0,-0.7
O=c1nccc(N/N=C/c2cccc(O)c2)[nH]1,-0.5%,-8%,2.3,/,-3,-9,-0.2
O=C(CSc1ncnc2c1cnn2-c1ccc(F)cc1)NCc1ccc2c(c1)OCO2,-0.4%,-19%,-1.4,?,20,-6,0.9
CCOC(=O)C(C)(C)n1nnc(-c2ccc([N+](=O)[O-])cc2)n1,0.3%,11%,2.3,/,-9,1,1.6
CCC(=O)NC(=S)Nc1ccc(NC(=O)c2ccco2)c(Cl)c1,4.5%,40µM*,2.7,/,0,27,-0.3
Cc1nc(N=C(N)N)nc2c(C)cccc12,-1.2%,-6%,-1.1,0.1%,9,-10,-0.5
CC(OC(=O)C1CC(=O)N(Cc2ccco2)C1)C(=O)Nc1ccccc1[N+](=O)[O-] (configuration not stated),1.1%,/,/,1.6%,7,12,-0.3
CCN(CC(=O)NC(=O)NC1CCCCC1)Cc1ccccc1,0.4%,/,/,-2.5%,4,7,0.6
O=C(c1cccs1)N1CCC(c2nc3c(nnn3Cc3ccccc3Cl)c(=O)[nH]2)CC1,0.0%,-5%,-0.4,/,-4,14,-0.5
Cc1cccc(NC(=O)N(Cc2cc3cc(C)cc(C)c3[nH]c2=O)CC2COCCO2)c1 (configuration not stated),8.4%[38.3 µM],6%,1.8,?,-8,36,0.9
N/C(Cc1ccc(Cl)cc1Cl)=N\OC(=O)c1ccc(Br)o1,5.0%,6%,1.9,/,-10,21,0.8
CN(C)C(=O)CCC(=O)N1CCCC(C(=O)c2ccc3c4c(cccc24)CC3)C1 (configuration not stated),1.7%,13%,1.0,/,-2,-7,-0.3
CC1CCC(NC(=O)COC(=O)CSc2ccc(C(N)=O)cc2[N+](=O)[O-])CC1 (configuration not stated),-0.3%,/,/,-2.1%,-5,4,0.3
Cc1ccc(S(=O)(=O)N2CCc3ccccc3C2CN2C(=O)c3ccccc3C2=O)cc1 (configuration not stated),-1.3%,-1%,4.3,2.3%,-3,-19,87*
COc1ccccc1-c1nnc(SCC(=O)NC2CCCCC2)o1,2.3%,-3%,3.3,-3.3%,8,-3,0.3
O=C(CCN1C(=O)[C@@H]2Cc3ccccc3CN2C1=O)N[C@@H](C(=O)O)c1ccccc1,0.6%,8%,-8.3,-2.4%,4,/,/
Cc1cccc(C)c1-n1nnnc1C1(C)CCC(=O)N1Cc1cccnc1 (configuration not stated),-0.3%,/,/,-0.7%,/,/,-0.5
COc1ccc(C2CC=C(C(C)=O)CN2S(=O)(=O)c2ccc(C)cc2)cc1 (configuration not stated),-0.9%,/,/,0.6%,/,33,1.9

# Entries of single compounds, quoted from the list. Order of values: PINK1 expr mod	Sfp PPTase inh	Menin MLL FP FL	ClpP mod	TRPV1 PAM	TRPML1 inh	TRPML1 ag
# CCN(CC(=O)NC(=O)NC1CCCCC1)Cc1ccccc1 in the list: 0.4%	/	/	-2.5%	4	7	0.6
# CCOC(=O)C(C)(C)n1nnc(-c2ccc([N+](=O)[O-])cc2)n1 in the list: 0.3%	11%	2.3	/	-9	1	1.6
# CCCCCN=Cc1c(C)[nH]n(-c2nc3ccccc3s2)c1=O in the list: 5.9%[38.3 µM]	-1%	4.6	0.0%	2	0	-0.7

# More entries.
SMILES,PINK1 expr mod,Sfp PPTase inh,Menin MLL FP FL,ClpP mod,TRPV1 PAM,TRPML1 inh,TRPML1 ag
O=C(CSc1nc(O)cc(=O)[nH]1)N1CCCc2ccccc21,-0.4%,11%,4.4,-24%,2,-4,0.1
CCc1nc2ccc(C(=O)Nc3ccc(NC(C)=O)cc3)cn2c1N(CCC(C)C)CCN(C)C,0.2%,/,/,2.0%,/,/,-0.3
Cc1cc(C)n2nc(SCc3nnc(-c4ccc(F)cc4)o3)nc2n1,/,-16%,0.9,/,1,/,/
Cc1ccc(S(=O)(=O)CCC(O)c2ccc(Cl)cc2)cc1 (configuration not stated),-0.3%,5%,6.2,0.8%,10,0,2.1
NC(=O)NOCc1c(Cl)cccc1Cl,0.6%,21%,0.3,/,1,-8,0.7
Cc1c(C(=O)Nc2cccc(S(=O)(=O)N3CCOCC3)c2)oc2ccccc12,-0.8%,/,/,-1.9%,/,6,1.5
N=C1SCC(=O)N1/N=C/c1ccccc1,-0.3%,8%,2.9,/,0,-10,-0.4
Cc1cc(OCC(=O)OCC(=O)Nc2ccc(Cl)cn2)ccc1Cl,0.5%,/,/,-2.3%,15,-1,-0.2
O=C(NCc1ccc(Cl)cc1)C1CCN(S(=O)(=O)c2ccccc2)CC1,-0.6%&-1.2%,12%,2.5,-4.1%&-1.9%,-3,8&0,-1.2&1.2
Cc1ccccc1C(=O)N1CCCCC1CCN1CCCCC1 (configuration not stated),-0.2%,/,/,0.6%,/,-20,-0.4
O=C(Nc1cc(S(=O)(=O)N2CCCCCC2)ccc1OCC(F)(F)F)c1ccc(=O)[nH]c1,2.0%,/,/,1.2%,23,0,0.5
O=C(c1ccccc1)c1c[nH]c(C(=O)NNc2cccc(Cl)n2)c1,5.0%,-23%,4.7,/,29,-11,0.0
Cn1c(=O)c2c(-c3ccccc3)n(Cc3ccccn3)cc2n(C)c1=O,-1.8%,?,4.3,-21%,-2,7,0.3
O=C(CSc1nnc(-c2ccc(Br)cc2)o1)Nc1cccc(C(=O)O)c1,0.2%,6%,/,-0.5%,27,-1,0.3
CN(C(=O)c1ccccc1C(=O)OCC(=O)c1ccccc1)c1ccccc1,0.5%,/,/,-1.1%,11,-21,3.3
Cc1ccc2nc(-c3ccc(Br)cc3)cn2c1,0.4%,17%,-2.0,-28%,-11,0,1.0
O=C(COC(=O)c1ccc(O)cc1)c1ccc2c(c1)OCCO2,-0.3%,/,/,-4.1%,-4,32,1.0
S=C(Nc1ccccc1)N1CCN(Cc2ccccc2)CC1,0.4%,0%,7.0,/,-5,-2,-0.7
CC(C)[C@@H](C(=O)O)N(Cc1cccc(CN([C@H](C(=O)O)C(C)C)S(C)(=O)=O)c1)S(C)(=O)=O,-0.9%,20%,6.5,-1.9%,1,-9,0.0
COCCNC(=O)CN(C(=O)Cn1nnc2ccccc21)c1ccc(C)cc1,-0.6%,14%,0.8,0.1%,-1,6,4.0
Cc1cccc(OCCC(=O)OCC(=O)Nc2c(C)nn(-c3ccccc3)c2C)c1,-0.4%,/,/,0.7%,-3,6,0.7
CCCc1c(C(=O)Nc2ccc(F)cc2F)cnn1-c1ccccc1,0.5%,11%,6.7,0.1%,-19,-11,-0.4
C=CCn1c(=NC(=O)c2ccc(S(=O)(=O)N3CCCC3)cc2)sc2cc(NC(C)=O)ccc21,0.5%,15%,6.2,-5.3%,-6,-8,-0.7
CC1(C)CC(=O)C(N=Nc2c(F)cccc2F)=C(O)C1,1.7%,-16%,3.5,/,0,-11,-0.4
CCc1ccccc1NC(=O)COC(=O)C1C2CC3OC(=O)C1C3C2 (configuration not stated),-1.2%,4%,0.4,/,6,21,0.0
Cc1ccc(/C=C2/C(=N)N3N=C(CC(=O)N4CCCC4)SC3=NC2=O)cc1,-0.2%,14%,/,0.7%,-8,-13,2.8
CCc1nn(CC(=O)N2CCN(CC)CC2)c(=O)c2cc3sccc3n12,-0.5%,-1%,-7.5,?,18,-14,-0.1
Cc1cc(C)c(C)c(S(=O)(=O)NCc2ccncc2)c1C,-1.9%,20%,-4.5,/,-4,-18,-0.6
CCOC(=O)C1CCN(C(=O)COC(=O)c2nc3nc(C)cc(C)n3n2)CC1,-0.2%,/,/,-2.5%,7,1,0.7
Cc1nc2cc(NC(=O)NCc3ccco3)ccc2n1C,5.7%[38.3 µM],16%,15,-0.9%,2,-1,0.1
Cc1ccc(C(=O)Nc2nc(C(N)C(C)C)cs2)cc1 (configuration not stated),4.1%,/,/,-5.3%,/,/,-0.6
CC(C)(C)n1nnnc1C(c1ccccc1)N1CCN(C(=O)c2ccco2)CC1 (configuration not stated),0.0%,/,/,-2.1%,/,/,-0.1
COCc1cc(C)n(CC(=O)N2CCCC2)c(=O)c1C#N,-1.1%,-10%,-2.3,3.5%,4,-9,3.9
COc1ccc(Cl)cc1N(CC(=O)Nc1cccc(SC)c1)S(C)(=O)=O,4.1%[38.3 µM],7%,0.0,0.3%,12,4,0.7
COc1cc(N)c(Cl)cc1C(=O)OCC(=O)N(C)C1CCCCC1,2.0%,/,/,0.1%,-8,32,0.8
O=C1CCCN2N=C(SCC(=O)Nc3ccc(Cl)cc3)SC2=N1,8.5%,20%,2.1,0.0%,1,9,-1.7
Cc1ccc(S(=O)(=O)NNC(=O)C(=O)NNS(=O)(=O)c2ccc(C)cc2)cc1,-0.3%,28%,-1.5,0.1%,8,12,0.1
CC1Cc2cc(S(=O)(=O)N3CCC(C(=O)Nc4ccccn4)CC3)ccc2N1C(=O)C1CCC1 (configuration not stated),21%,8%,-1.1,/,-1,15,0.4
COc1ccc(Nc2nc(N)nc(CCl)n2)cc1,-1.7%,15%,0.4,-6.0%,-1,-6,1.4
O=C(COC(=O)CCNS(=O)(=O)c1ccc(Cl)cc1)NCc1ccco1,-0.6%,-6%,4.3,-0.8%,9,35,-0.7
Cc1nc(NC(=O)CSc2nnc(-c3ccccc3)c(-c3ccccc3)n2)c(Cl)cc1Cl,1.0%,-16%,25,0.2%,-7,18,4.8

# Source: PubChem BioAssay (National Center for Advancing Translational Sciences (NCATS))
